Screening results from PubChem.
gsp antag: antagonizes gsp, the McCune-Albright syndrome mutation; gsp-mutant cells, cAMP HTRF, 30 min; control for the full effect not named in the record; Potency, µM (titrated, usually from 76.9 µM), without a hit: top-dose activity change, negative = inhibition, hits mostly inhibitors; 340,000 tested, 0.4% active; active = falling curve of any shape with a large fitted effect; inconclusive = falling curve, mostly with a smaller effect; inactive = flat or rising curve; cell line not stated here;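 further: intracellular cAMP measured with PDE inhibitor Ro 20-1724 present during compound exposure; potency means the concentration at half of the fitted maximal effect; on the % scale 0 is the no-effect control and ±100 the full control effect; nearly all actives have a fitted effect of over 65% in size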
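Measurement of cellular cAMP by homogeneous time-resolved fluorescence following a 30 min compound exposure at 37C. The PDE inhibitor […] was present throughout; the assay buffer was DPBS with 0.05% BSA and 0.005% Tween 20.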
Menin MLL FP FL: displaces fluorescein MLL peptide from human menin; FP activity change, % at 61.4 µM; Fluorescence polarization, fluorescein-MLL peptide displacement from menin; 290,000 tested, under 10 active; inconclusive = falling polarisation curve, or a change in total fluorescence; inactive = total fluorescence flat and polarisation flat or rising; no compound was filed as active; the % refers to the polarisation; negative = inhibition;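 further: % of control where 0% means no effect; inhibitors lower the polarisation; unlabelled MLL peptide was the positive control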
gsp ag: activates gsp, the McCune-Albright syndrome mutation; gsp mutant cells, cAMP HTRF, 30 min; control for the full effect not named in the record; Potency, µM (titrated, usually from 76.9 µM), for inactives: at the top dose activation (cAMP increase), actives largely listed as activators; 340,000 tested, 0.13% active; AID 624287; active = well fitted activation curve with a large enough effect; inconclusive = small, poorly fitted or top-dose-only effect, or another doubt; inactive = no such curve, though single readings can be large or run the other way; cell line not stated here;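 further: phosphodiesterase inhibitor Ro 20-1724 added with compounds to block cAMP breakdown; potency means the concentration at half of the fitted maximal effect; nearly all actives have a fitted effect of over 60% in size; about a fifth of the inactives were tested at one dose only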
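Cells stably selected in G418 were plated at 2000/well, grown 16-24 hr, then given compounds in DMSO with the PDE inhibitor […] (300 uM solution added) for 30 min at 37C; cAMP was read by HTRF.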
D2 PAM: potentiates the human D2 dopamine receptor allosterically; P14416; DiscoveRx D2 beta-arrestin cells, luminescence, 90 min; 100% = 57 uM dopamine signal; potentiation, % (no concentration beside the values); 360,000 tested, 0.23% active; active = potentiation of 50% or more; inconclusive = 30% to 50%; inactive = 30% or less;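 further: compound concentration not given in the record; tested on top of an EC20 dose of dopamine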
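PathHunter D2 cells, attached overnight at 37 deg C, received compound in DMSO plus dopamine at EC20 (50 nM final) for 90 min at 37 deg C. Beta-arrestin recruitment was read as luminescence after 1 h with detection reagent at ambient temperature.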
Sfp inh: blocks B. subtilis Sfp PPTase activity | 310,000 tested, 3.5% active | Biochemical Sfp PPTase activity, qHTS | Potency, µM, without a hit: max response, negative = inhibition, actives largely listed as inhibitors; active means well fitted inhibition curve with a large enough effect; inconclusive means small, poorly fitted or top-dose-only effect, or another doubt; inactive means no such curve, though single readings can be large or run the other way;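 further: the enzyme is Sfp with the accession as filed and its product quenches rhodamine fluorescence; potency means the concentration at half of the fitted maximal effect; 0% = enzyme reaction without inhibitor and -100% = no enzyme wells; top concentration of the series not given in the record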
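Fluorescence-quenching assay with 15 nM Sfp, 5 uM rhodamine-CoA and 12.5 uM BHQ-2-labelled ybbR peptide in pH 7.6 Hepes/MgCl2 buffer. Enzyme was pre-incubated with compound for 15 min at room temperature. Rate was taken from the 30-min fluorescence change (525/598 nm).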
ClpP mod: qHTS Assay for Activators of ClpP | purified B. subtilis ClpP, FRET peptide cleavage, 20 min | Potency, µM (doses to about 57.5 µM), without a hit: top-dose activity change, negative = active | 340,000 tested, 1.9% active | AID 651965, 2013; active = well fitted falling curve with a large enough effect; inconclusive = small, poorly fitted or top-dose-only effect; inactive = no such curve, though single readings can be large or run the other way; further: potency means the concentration at half of the fitted maximal effect; the source files actives as falling curves though it sought activators and does not explain the sign; nearly all actives have a fitted effect of over 65% in size; many hits overshoot -100%
Target sequence (P80244 whole entry, looked up): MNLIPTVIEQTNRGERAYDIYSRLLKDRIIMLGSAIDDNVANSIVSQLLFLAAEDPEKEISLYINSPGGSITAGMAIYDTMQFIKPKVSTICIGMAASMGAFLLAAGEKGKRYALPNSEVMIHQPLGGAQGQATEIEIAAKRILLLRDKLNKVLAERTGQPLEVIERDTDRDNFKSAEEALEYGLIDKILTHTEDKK
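Purified B. subtilis ClpP, 10 microg/mL final in Tris/HCl pH8 with KCl, BSA, glycerol and Tween-20, cleaved an Abz/nitrotyrosine-quenched decapeptide. Fluorescence (ex 320, em 430) was read at 0 and 20 min at room temperature. Delta was normalized to 5.8 microM ADEP and DMSO/no-enzyme controls.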
TRPV1 PAM: human TRPV1 potentiation; TRPV1-expressing cells, Fluo-8 calcium influx, capsaicin EC20 potentiation; host cell line not named in the record; control for the full effect not named in the record; Q8NER1; 320,000 tested, 0.02% active; potentiation, % at 8.33 µM; active means potentiation above 80%; inconclusive means 30% to 80%; inactive means below 30%; further: 0% is about no effect
Target sequence (Q8NER1 whole entry, looked up): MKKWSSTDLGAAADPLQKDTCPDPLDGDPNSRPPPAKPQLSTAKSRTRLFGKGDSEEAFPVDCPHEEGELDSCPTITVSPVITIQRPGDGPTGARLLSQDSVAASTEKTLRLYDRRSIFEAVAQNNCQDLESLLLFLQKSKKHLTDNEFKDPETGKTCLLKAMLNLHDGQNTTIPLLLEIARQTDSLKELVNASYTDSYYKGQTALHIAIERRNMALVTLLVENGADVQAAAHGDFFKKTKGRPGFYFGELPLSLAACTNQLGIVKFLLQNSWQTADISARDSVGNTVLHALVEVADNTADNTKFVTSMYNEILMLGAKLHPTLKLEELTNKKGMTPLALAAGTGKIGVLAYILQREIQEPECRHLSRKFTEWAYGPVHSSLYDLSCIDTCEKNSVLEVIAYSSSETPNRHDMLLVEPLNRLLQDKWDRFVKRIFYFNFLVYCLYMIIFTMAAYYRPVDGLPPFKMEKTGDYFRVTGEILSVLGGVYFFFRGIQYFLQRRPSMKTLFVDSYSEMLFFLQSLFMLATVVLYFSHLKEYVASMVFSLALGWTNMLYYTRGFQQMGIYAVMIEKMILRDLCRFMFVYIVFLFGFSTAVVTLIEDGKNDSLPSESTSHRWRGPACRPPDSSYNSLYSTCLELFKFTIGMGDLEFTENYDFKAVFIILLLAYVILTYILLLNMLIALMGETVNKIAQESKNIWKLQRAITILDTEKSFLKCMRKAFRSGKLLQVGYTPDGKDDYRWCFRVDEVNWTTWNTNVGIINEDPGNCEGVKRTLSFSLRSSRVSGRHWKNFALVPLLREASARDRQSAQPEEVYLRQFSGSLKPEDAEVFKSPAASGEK
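Cells expressing TRPV1 were dye-loaded with Fluo-8 and read kinetically: 10 s baseline, 3 min after compound (agonist portion), then 2 min after EC20 capsaicin (allosteric enhancer portion). Calcium-bound dye fluorescence at 480/520 nm.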
* marks the source's active call; other numbers are inactive results; ? = inconclusive; nt = not tested or not shown; & = joins results of further samples; [ ] = another dose, or the depositor's remark. This is a random part of the collection. Share with any hit: about 5.1%.

SMILES	gsp antag	Menin MLL FP FL	gsp ag	D2 PAM	Sfp inh	ClpP mod	TRPV1 PAM
N/C(=N\OC(=O)c1ccccc1Cl)c1ccccc1	4%	1.1	?	20	-5%	-0.9%	-1
COC(=O)c1cc(OC(=O)c2ccc(=O)[nH]c2)cc(C(=O)OC)c1	-5%	1.3	-3%[15.4 µM]	2	6%	nt	2
O=C(NC1CCOc2ccccc21)c1ccc(=O)[nH]c1 (stereo not given)	10%	1.1	-21%[15.4 µM]	3	16%	nt	-2
CCN(CC)CCOC(=O)c1ccc(N/C=C(/C#N)c2nc(-c3ccc(OC)cc3)cs2)cc1	5%	8.5	6%[15.4 µM]	-13	56µM*	-0.4%	7
COCCCn1c(=O)/c(=C\c2cccc(OC)c2OC)s/c1=C(/C#N)C(=O)Nc1ccc(C(=O)O)cc1	14µM*	?	0%	-2	-13%	0.1%	-8
O=C(C1CC(=O)N(c2ccc3c(c2)OCCO3)C1)N1CCN(Cc2ccccc2)CC1 (stereo not given)	-6%	nt	-15%	10	nt	-0.5%	-4
CCOc1ccc(CCNC(=O)CCc2nnc3ccc(N4CCOCC4)nn23)cc1OCC	8%	-1.3	8%	2	6%	0.1%	1
Cn1nc([N+](=O)[O-])nc1Oc1ccccc1C(=O)N1CCOCC1	4%	0.5	17%[15.4 µM]	7	13%	nt	4
O=C(NCc1ccc2c(c1)OCO2)c1ccc2c(=O)n(C3CCCC3)c(=O)[nH]c2c1	6%	0.7	5%	16	1%	-20%	4
Cn1cnc([N+](=O)[O-])c1Sc1ccc(C(C)(C)C)cc1	4%	-6.6	10%[15.4 µM]	2	-14%	nt	30
Fc1cccc(/C=N/n2c(C3CCCCC3)n[nH]c2=S)c1	-16%	-7.6	10%	-2	5%	-0.1%	0
O=C(CSc1ccccn1)Nc1ccc2[nH]c(=O)[nH]c2c1	4%	nt	6%	-2	nt	-2.6%	-14
Cc1ccc(N=C2C(=O)Nc3c(C)cccc32)cc1	0%	-0.2	-76%[inhibitor]	-11	2%	2.9%	-20
Cc1ccc(S(=O)(=O)NC(C)C(=O)Nc2ccc3c(c2)OCO3)cc1 (stereo not given)	-12%	-2.2	-32%[inhibitor]	-1	6%	nt	-1
Cc1ccc(S(=O)(=O)Nc2cc(C)c(O)c(S(=O)(=O)c3ccc(C)cc3)c2)cc1	-5%	13	-64%[inhibitor]	88*	-2%	0.1%	0
O=C(CC1C(=O)NCCN1C(=O)Nc1ccc(F)cc1F)Nc1ccc(F)cc1 (stereo not given)	9%	-0.1	0%[15.4 µM]	2	-2%	nt	nt
C=CCN(C(=O)c1csnn1)C(C(=O)NC1CCCC1)c1cccs1 (stereo not given)	-8%	nt	16%[15.4 µM]	8	4%	-1.6%	3
COc1ccc(/C=C/C(=O)N2CCNC(=O)C2)c(OC)c1	4%	0.3	-1%	-4	5%	-15%	0
CCC(C)CCN1C(Nc2ccccc2)=NC[C@@H]1CC(C)C (stereo not given in full)	4%	-2.0	9%	-20	-3%	1.4%	7
Cn1c2c(c(=O)n(C)c1=O)NC1(N2)C(=O)Nc2ccccc21 (stereo not given)	4%	-23	23%	-49	17%	5.2%	21
O=C1COc2ccc(S(=O)(=O)NCCc3ccc(Cl)cc3)cc2N1	-4%	5.1	-5%	-1	13%	nt	-2
O=c1[nH]cc(COCC(F)CCl)c(=O)[nH]1 (stereo not given)	10%	5.6	27%	-6	4%	-1.0%	-2
CC(=O)NCc1cc(-c2ccc(Cl)cc2)no1	-3%	-5.1	-15%	-7	20%	-0.5%	-26
Cc1c(Cl)cccc1N1C(=O)CC(NNC(=O)c2cccs2)C1=O (stereo not given)	1%	-0.2	-7%[15.4 µM]	0	15%	nt	9
COc1cc(NC(=O)C2=C(N3CCOCC3)/C(=C\c3ccc(Cl)cc3Cl)CC2)cc(OC)c1OC	7%	8.0	-47%[inhibitor]	-11	-1%	-4.7%	1
Carrying on.
SMILES	gsp antag	Menin MLL FP FL	gsp ag	D2 PAM	Sfp inh	ClpP mod	TRPV1 PAM
CCOC(=O)c1c(S(=O)(=O)N2CCN(c3ccc(F)cc3)CC2)c(C)n(C)c1C	-4%	2.2	4%	-9	15%	0.5%	4
O=C(OCc1cn([C@@H]2CN(C(=O)c3cccs3)[C@@H](c3ccc(Cl)cc3)C[C@H]2O)nn1)c1ccccc1	nt	nt	-39%[inhibitor]	1	nt	1.6%	nt
COc1ccc2c(C)c(CCC(=O)NC3CC3)c(=O)oc2c1	-8%	-3.2	nt	-1	5%	4.1%	-2
CSc1cccc(Nc2ccc(S(=O)(=O)N3CCOCC3)cc2[N+](=O)[O-])c1	-1%	nt	1%	-2	nt	-1.6%	5
CCCCCC(=O)Nc1cccc(S(=O)(=O)NC2=NCCCCC2)c1	4%	nt	?	-13	nt	-0.4%	-5
COc1ccc(N2CCN(CC(=O)Nc3nc(C)cs3)CC2)cc1	-3%	-4.3	-5%[15.4 µM]	-33	-27%	0.1%	-3
O=C(NCc1ccc2c(c1)OCO2)C1CCN(S(=O)(=O)c2ccc(F)cc2)CC1	-7%	nt	-20%	-5	10%	1.4%	-2
COc1ccc(OCCNC(=O)C(c2ccccc2)c2ccccc2)cc1	-9%	6.9	-38%[inhibitor]	8	5%	0.4%	1
COc1ccc(CNC2CCCc3ccccc32)cc1OC (stereo not given)	-12%	1.2	-7%[15.4 µM]	-11	-6%	4.5%	11
O=C(Nc1ccc(N2CCCC2)c(Cl)c1)c1cccnc1	-7%	6.6	-23%	-6	0%	-3.9%	9
CCN1CCc2c(OCc3ccc(C)cc3)cccc2C1=O	-9%	0.6	-15%[15.4 µM]	6	-6%	nt	15
CCC(=O)Nc1c(-c2ccc(C)cc2)c(=O)c2ccccc2n1C	0%	5.8	-1%	-3	11%	nt	18
COc1ccc(N2CCN(C(=O)CCN3C(=O)C4C5C=CC(C5)C4C3=O)CC2)cc1 (stereo not given)	-6%	-6.9	-195%[inhibitor]	-6	1%	6.3%	0
CCCCN(C(=O)c1ccc(COc2ccccc2)o1)c1c(N)n(CC(C)C)c(=O)[nH]c1=O	3%	nt	-28%	-3	nt	-6.3%	10
CCCOP(=O)(OCCC)C(NC(=O)C(C)(C)C)c1ccccc1 (stereo not given)	4%	5.3	-36%[inhibitor]	-4	23%	0.5%	-3
COc1ccc(C)cc1-n1nnnc1SCC(=O)NC(=O)NCc1ccco1	4%	5.4	-9%	-4	16µM*	1.3%	-8
O=S(=O)(c1ccccc1)c1nc(-c2ccccc2Cl)oc1NCCCN1CCOCC1	-27%	nt	-25%[15.4 µM]	-40	nt	2.7%	nt
CCCCCC(O)CCCC(=O)O (stereo not given)	-9%	-1.8	nt	1	27%&-15%	-6.1%	nt
COCCNC(=O)C(OC(=O)c1nsc(Cl)c1Cl)C(C)C (stereo not given)	7%	nt	?	-4	8%	nt	-7
O=C(N/N=C/c1coc2ccc(Cl)cc2c1=O)c1cc(O)cc(O)c1	1%	-2.6	6%[15.4 µM]	2	16%	-4.5%	23
N#C/C(=C/c1ccc(-c2ccccc2[N+](=O)[O-])o1)C(=O)NCCN1CCCCC1	-12%	-1.8	0%	-6	-17%	nt	4
CC(=O)n1cc([C@@H]2C=C(C(=O)N3CCN(Cc4ccc5c(c4)OCO5)CC3)O[C@H](OCCCCO)C2)c2ccccc21	-23%	0.2	nt	-4	-11%	-1.2%	-23
O=C(Nc1ccc(S(=O)(=O)N2CCOCC2)cc1)C1CC(=O)N(c2ccc(F)cc2)C1 (stereo not given)	-16%	4.8	-21%[15.4 µM]	4	14%	nt	-7
O=C(CSc1nc(-c2ccccc2)nc2c1CCCC2)N1CCOCC1	-1%	-2.9	10%	-3	-7%	-0.9%	7
COc1ccccc1N(CN1CCCC1=O)C(=O)COc1ccccc1	-8%	2.2	1%	-15	28%	-0.7%	-8
Next section.
SMILES	gsp antag	Menin MLL FP FL	gsp ag	D2 PAM	Sfp inh	ClpP mod	TRPV1 PAM
CCC(C)CCN1C(N(C)C)=NC[C@@H]1Cc1ccccc1 (stereo not given in full)	6%	nt	nt	-8	nt	-3.4%	-2
Cc1ccc(CNc2nc3c([nH]2)c(=O)n(C)c(=O)n3C)cc1	1%	0.3	?	-2	-9%	20µM*	-5
COc1ccc(C(C)=O)cc1COC(=O)c1cc(C)oc1C	-25%	4.8	5%	7	-11%	-1.2%	-14
CCOCCCNC(=O)CN1C(=O)COc2ccc(S(=O)(=O)N3CCOCC3)cc21	-1%	4.0	?	0	19%	-0.6%&-6.8%	28
CC(=O)Nc1ccc(C(=O)OCC(=O)N2CCCC2=O)cc1	3%	nt	-2%[15.4 µM]	-24	nt	1.6%	nt
O=C(Nc1ccc2nc3n(c(=O)c2c1)CCCCC3)c1ccccc1Cl	-5%	2.9	0%	5	13%	-1.0%	nt
Cc1ccc(C(=O)N/N=C\c2cccs2)cn1	-11%	-2.0	-4%[15.4 µM]	-8	23%	nt	0
CC(=O)c1ccc(OCCCC(=O)Nc2ccc(C)c(S(=O)(=O)N3CCOCC3)c2)cc1	-7%	nt	-15%[15.4 µM]	-18	nt	-2.8%	4
COc1cc([N+](=O)[O-])cc(/C=N/NC(=O)c2ccc(C)nc2)c1O	-1%	15	-42%[inhibitor]	-25	5%	-5.2%	-22
COc1cc(OC)nc(Oc2ccccc2C(=O)Oc2cccc(C)c2)n1	-24%	0.0	-26%	-6	5%	-0.7%	-13
Cc1ccc(C)c(-c2cc(C(=O)NN3CCOCC3)c3ccccc3n2)c1	12%	1.7	-4%[15.4 µM]	-7	2%	0.6%	3
CC1CCN(C(=O)Cn2cc(S(=O)(=O)CC(=O)N3CCOCC3)c3ccccc32)CC1	5%	nt	5%[15.4 µM]	-15	nt	-0.9%	nt
COC(=O)c1ccc2c(c1)C(=O)/C(=C/c1ccc(C)cc1)O2	-2%	1.9	-8%	5	-2%	28µM*	6
Cc1cccc(N(CC(=O)NC2CCCCC2)C(=O)CCC(=O)Nc2nccs2)c1	1%	2.0	-11%	-4	0%	nt	-11
CC1(C)CNC(=S)N1Cc1ccccc1	nt	nt	6%	-8	nt	-0.7%	nt
CC1(c2ccc3noc(-c4cccc(F)c4)c3c2)OCCO1	-27%	4.8	20%[15.4 µM]	21	-9%	0.3%	?
COc1ccc(S(=O)(=O)N2CCOC2CNC(=O)C(=O)NCCc2ccc(S(N)(=O)=O)cc2)cc1 (stereo not given)	8%	0.9	-9%	-4	15%	-1.0%	2
